Screening data from PubChem BioAssay.
eIF4H inh: inhibitors of RNA binding by human eIF4H; inhibition, % at 35 µM; eIF4H fluorescence polarization binding assay; hit rate 0.94% among 290,000;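 active = 50% or more with normal probe brightness, or confirmed in later tests; about a fifth of its hits are not listed in these tables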;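 note: calls also rest on retests at 20 µM and on dose response follow-up; 0% = protein and probe with vehicle and 100% = probe without protein; strong numbers were not always called active; many hits fall short of the cut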
MT1-MMP act inh: blocks activation of human MT1-MMP | hit rate 0.061% among 360,000 | AID 651647 | GFP/RFP ratio change, % at 20 µM | HT1080 RFP-PRO-GFP cells, GFP/RFP ratio fluorescence, overnight; percent of plate control window, DMSO zero;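 active = GFP/RFP ratio change of at least 30% with cell ATP level not reduced by more than half and red fluorescence within 50% of control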; note: strong numbers were not always called active
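Assay system – RFP-PRO-GFP reporter HT1080 cells · Compound dosing – single dose of 20 µM compound, 1% DMSO final · Incubation – overnight compound exposure at 37 °C · Measure – GFP/RFP fluorescence ratio · Benchmarks – DMSO wells and RFP-L50D-GFP cells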
Yeast UUG start: modulators of start codon recognition fidelity in yeast; S. cerevisiae UUG-firefly luciferase reporter, luminescence/redox ratio; activity score, % at 18.7 µM; hit rate 0.13% among 350,000; AID 602363;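 active = replicate mean at a twofold rise or more, about +100% in these data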;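 note: firefly luciferase made from a UUG start codon reports start codon fidelity; reporter light over untreated wells divided by growth signal over untreated wells; some hits fall short of that in this replicate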
HIV Env fusion: inhibitors of HIV Env-mediated cell fusion; hit rate 1.1% among 360,000; inhibition, % at 12.3 µM; HeLa-JRFL Env/CEM21 cell fusion, luciferase;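 active = mean replicate inhibition score of at least 50 and every replicate individually at or above 50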;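 note: 0% = plate neutral controls and 100% = maraviroc near 300 nM; one replicate is shown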
Rce1 inhib: inhibitors of yeast Ras-converting enzyme; calls only; yeast membranes, quenched prenylated peptide cleavage fluorescence; Q03530; AID 2563; hit rate 0.27% among 290,000;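 active = fall in fluorescence gain of 50% or more versus controls, with final raw signal at or below 3038400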;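 note: plate controls were neutral control wells for no effect and wells lacking membranes for full effect; tested at 10 µM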
Target sequence (Q03530 whole entry, looked up): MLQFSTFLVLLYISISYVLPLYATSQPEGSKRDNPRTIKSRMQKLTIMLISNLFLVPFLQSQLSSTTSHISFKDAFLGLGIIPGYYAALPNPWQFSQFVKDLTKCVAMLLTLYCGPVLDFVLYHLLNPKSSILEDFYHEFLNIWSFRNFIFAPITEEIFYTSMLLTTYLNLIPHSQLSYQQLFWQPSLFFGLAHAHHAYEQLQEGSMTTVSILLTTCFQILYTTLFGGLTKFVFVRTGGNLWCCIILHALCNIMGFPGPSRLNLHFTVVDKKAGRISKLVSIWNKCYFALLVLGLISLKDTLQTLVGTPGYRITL
PABP FP inh: PABP-poly(A) binding inhibition; PABP-poly(A) RNA binding, fluorescence polarization; inhibition, % at 35 µM; hit rate 1% among 290,000; P11940;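 active = 50% or more with normal probe brightness, or confirmed in later tests; about a fifth of its hits are not listed in these tables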;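 note: calls also rest on retests at 20 µM and on dose response follow-up; controls were probe without protein and protein plus probe with vehicle; some compounds called inactive have numbers as strong as hits; many hits fall short of the cut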
CSC inhib: blocks cancer stem cells; cancer stem cell-like cells viability, luminescence; inhibition, % at 7.5 µM; hit rate 1.1% among 300,000; AID 2717;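 active = mean at 75% or more and at least half the replicates too; tested in HMLE shEcad cells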;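 note: 0% = median of negative and 100% = median of positive control wells; the first replicate is given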
MT1-MMP act inh RFP: also measured in MT1-MMP act inh; calls as there; RFP signal change, %; measured here: RFP expression control read;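 0 = vehicle wells; hits needed this value within 50% of zero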
* hit, by the source's call; i = inactive; / = not tested or not shown; & = joins results of further samples; [ ] = remark or other dose.

molecule,eIF4H inh,MT1-MMP act inh,MT1-MMP act inh RFP,Yeast UUG start,HIV Env fusion,Rce1 inhib,PABP FP inh,CSC inhib
CCN(CC)C1=N/C(=C\c2ccc(OC)cc2)C(=O)N1c1ccccc1,-2,1,5,3,11,i,0,8
CCn1c(CNc2ccc(F)cc2)nnc1SCC#N,4,3,6,/,11,i,5,/
CCSc1nnc(NC(=O)COc2ccc(Cl)cc2)s1,-14,3,1,/,8,i,8,6
CCOC(=O)C1CCCN(c2c(Nc3ccc(OCC)cc3)c(=O)c2=O)C1 (stereo unspecified),2,3,0,-21,-2,i,2,5
Cc1cc(C)cc(OCC(=O)N/N=C\c2cn(C)nc2C)c1,4,6,5,-8,/,i,18,/
O=C(CSc1nc(-c2ccccc2Cl)ns1)NCc1ccco1,-6,4,3,/,-19,i,-11,15
COc1cc(NC(=O)CCc2c(C)nc3nc(C)nn3c2C)cc(OC)c1,-1,4,0,1,-24,i,8,-8
Cc1cc(C)n(-c2nc3sc4c(c3c3nnc(SC(C)C)n23)CC(C)(C)OC4)n1,/,-10,-7,-3,-37,/,/,/
COC(=O)c1ccc(C)c(NS(=O)(=O)c2cn(C)nc2C)c1,-4,/,/,-9,-7,i,9,-1
Cc1cc(C)cc(NC(=O)N2CCCN(Cc3c(F)cccc3Cl)CC2)c1,0,-1,-3,-4,6,i,0,-10

2 records drawn at random from those above:
molecule,eIF4H inh,MT1-MMP act inh,MT1-MMP act inh RFP,Yeast UUG start,HIV Env fusion,Rce1 inhib,PABP FP inh,CSC inhib
COc1cc(NC(=O)CCc2c(C)nc3nc(C)nn3c2C)cc(OC)c1,-1,4,0,1,-24,i,8,-8
CCSc1nnc(NC(=O)COc2ccc(Cl)cc2)s1,-14,3,1,/,8,i,8,6

Other compounds follow:
molecule,eIF4H inh,MT1-MMP act inh,MT1-MMP act inh RFP,Yeast UUG start,HIV Env fusion,Rce1 inhib,PABP FP inh,CSC inhib
CC1CCC(N2CCN(c3ncccn3)CC2)CC1 (stereo unspecified),-8,-1,2,-5,-3,i,-5,-9
Cc1nn(C)c(Cl)c1NC(=O)OCc1ccc(Cl)cc1Cl,2,8,-15,-1,73*,i,1,-8
CCC(C)NC(=S)N1CCN(Cc2ccccc2)CC1 (stereo unspecified),10,2,3,-29,-2,i,17,-3
CCNC(=O)c1ccc(NC(=O)CC2SC(N3CCCCC3)=NC2=O)cc1 (stereo unspecified),/,1,2,-4,8,/,/,/
CC(C)CC(NC(N)=O)C(=O)NCc1ccccc1Cl (stereo unspecified),3,0,5,/,-14,i,5,-13
CC(=O)Oc1ccc(N(C(C)=O)S(=O)(=O)c2ccc(Cl)cc2)c2ccccc12,-1,3,7,0,-2,i,14,13
O=C(C1=C[C@H](c2coc3ccccc3c2=O)C[C@H](OCc2ccc(CO)cc2)O1)N1CCOCC1,-3,8,5,4&-13,4[16.7 µM],i,-1,-11
COc1ccc(N2CCN(c3cc(C)c4ccccc4n3)CC2)cc1,-7,6,7,-4,5,i,-9,59
CN1C(=O)COc2ccc(C(=O)c3ccccc3C(=O)O)cc21,3,-3,1,-18,-6,i,-3,-12
CCCCN1C(=O)C(CC(=O)NCc2cccs2)CC(C(=O)N(C(C)C)C(C)C)=C1C (stereo unspecified),/,-1,1,-19,-25,/,/,/
CC1=NN(C(C#N)c2ccccc2O)C(C)(C)C1 (stereo unspecified),-11,/,/,/,-23,i,5,-1
CC(Nc1ccc(S(=O)(=O)N2CCN(C)CC2)cc1[N+](=O)[O-])c1ccccc1 (stereo unspecified),/,4,-2,-27,14,/,/,/
O=C(Nc1ccc(CN2CCCCC2)cc1)c1cc(Br)ccc1Cl,-17,5,4,/,19,i,-14,-2
CCOc1ccccc1Nc1ncnc2ccc(Br)cc12,-5,-9,-8,/,7,i,-2,-8
COc1ccc(N2C(=O)CC(N3CCN(c4ccc(Cl)cc4)CC3)C2=O)cc1 (stereo unspecified),-1,4,-1,5,-7,i,-9,-15
CCc1nn(CC(=O)NCCCN(Cc2ccccc2)C(C)C)c(=O)c2cc3sccc3n12,7,4,-2,7,-25,/,-4,19
COc1ccccc1-n1c(C)nc2cc(C(=O)NCc3ccc4c(c3)OCO4)ccc21,-10,6,4,/,12,i,18,/
CCN(C(=O)CSc1nc2ccccc2c(=O)n1-c1ccc(C)cc1)C1CCS(=O)(=O)C1 (stereo unspecified),-5,-2,1,/,1,i,6,2
CC(C)c1ccc(NC(=O)COC(=O)CCC(=O)c2cccs2)cc1,2,4,2,-4,4,i,23,-11
CC(O)CNCCNCc1cccs1 (stereo unspecified),8,3,2,-7,2,i,-4,/
CC(NC(=O)CN1CCCC1)C12CC3CC(CC(C3)C1)C2 (stereo unspecified),-4,-1,1,10,-5,i,-7,-12
C=CCN1C(=O)C(O)=C(C(C)=O)C1c1ccccc1F (stereo unspecified),1,-8,1,0,-38,i,17,-2
O=C(Cn1ccc2ccccc2c1=O)Nc1ccc2c(c1)OCO2,-12,-1,1,-14,/,i,8,6
C/C(N)=C(/C#N)C(=O)COC(=O)c1ccccc1O,6,0,8,/,/,i,-4,10
COc1ccc(OCC(O)CNC(=O)c2ccc(Br)cc2)cc1 (stereo unspecified),0,6,5,-11,-140,i,-4,-4
CCCCN(C)CCNC(=O)c1ccc(Cn2c(=S)[nH]c3ccc(Br)cc3c2=O)cc1,-1,-6,-7,/,20,i,-6,16
CC1(C(=O)NS(=O)(=O)c2ccc(F)cc2F)CCN1C(=O)Cc1ccc(Cl)cc1Cl (stereo unspecified),/,-2,3,-21,15,/,/,/
Cc1cc(C(=O)COC(=O)/C=C/c2cccc(Br)c2)c(C)n1C,/,2,-1,0,22,/,/,/
CC1Cc2cc(S(=O)(=O)N3CCC(C(N)=O)CC3)ccc2N1C(=O)C1CC1 (stereo unspecified),/,6,2,/,-2,i,/,12
CCN1CCN(C(c2cccs2)C(C)NC(=O)c2cccc(OC)c2)CC1 (stereo unspecified),7,0,2,-1,/,i,23,-2
Cc1cc(NC(=O)C2CC(=O)N(c3cccc(C)c3C)C2)no1 (stereo unspecified),-3,0,3,-2,-26,i,-5,-1
CSc1ccc(/C=C/C(=O)N2CCN(c3ccccn3)CC2)cc1,-14,1,7,2,5,i,-6,-5
CCC(C(=O)NCc1ccccc1OC)n1nc(C)n2c(cc3occc32)c1=O (stereo unspecified),1,0,2,-3,-2,i,1,4
COc1ccc(NC(=O)CC(NCc2ccccn2)C(=O)O)cc1 (stereo unspecified),18,-3,6,/,6,i,2,12
O=C(O)CCC(=O)Nc1ccc(-c2nnc(-c3ccco3)o2)cc1,-7,2,2,-15,-1,i,5,-6
Cc1ccc2c(c1)C1CN(C)CCC1N2S(=O)(=O)c1ccc(C(C)C)cc1 (stereo unspecified),/,-8,-6,-3,-17,/,/,/
Cc1ccccc1C(=O)Nc1nnc(SC(C)C)s1,12,2,2,/,-3,i,7,16
COC(=O)c1[nH]c2cccc(OC)c2c1NC(=O)CN1CCC(C(N)=O)(N2CCCCC2)CC1,6,/,/,4,-28,i,-2,-1
C#CCOCCOCCOCCNc1nc(N2CCN(C(=O)[C@H](C(C)C)n3cc(CCO)nn3)CC2)nc(N2CCN(C(=O)[C@H]([C@@H](C)CC)n3cc(CCCCN)nn3)CC2)n1,-5,0,3,13,-31,i,-4,-13
Cc1ccc(C(=O)Nc2cccc(C(F)(F)F)c2)cc1NC(=O)c1c[nH]c2cc(C(F)(F)F)ccc2c1=O,/,5,0,-11,/,/,/,-4
Cc1[nH]n2c(=O)cc(-c3ccc([N+](=O)[O-])cc3)nc2c1-c1ccccc1,/,9,-7,-26,43,i,/,-9
COc1ccc(CN2CCC(n3nccc3NC(=O)C3CC3)CC2)c(OC)c1OC,5,3,4,-4,-15,i,-6,-6
CCCCC1(C(=O)OC)NC(c2ccc(O)cc2)C2C(=O)N(c3ccccc3)C(=O)C21 (stereo unspecified),-5,2,5,-9,7,i,-4,-23
CCCCNC(=O)CS(=O)Cc1nc(-c2ccc(C)cc2)oc1C (stereo unspecified),1,2,1,-8,-10,i,-6,-13
CCC(C(=O)NC1CCCCC1)N(Cc1cccs1)C(=O)c1snc(C(N)=O)c1N (stereo unspecified),4,4,7,6,11,i,9,2
CSc1ccccc1N=CC1=C(O)CC(C)(C)CC1=O,-4,4,-1,1,/,i,2,/
COc1cccc(NC(=O)NC2CCN(Cc3nnnn3Cc3ccc(F)cc3)CC2)c1,12,8,0,4,12,i,-7,-16
CC(=O)N1CCN(c2ccc([N+](=O)[O-])c(NCc3cccnc3)c2)CC1,-7,2,-3,1,5,i,-3,-4
O=C(N/N=C/c1ccc(-c2ccccc2[N+](=O)[O-])o1)c1cccnc1,2,1,4,-19,-20,i,-9,-6
O=S(=O)(c1ccc2ccccc2c1)N1CCN(C(=S)Nc2ccccc2F)CC1,-5,5,-5,-12,6,i,-8,6

One compound at a time (already shown). Order of values: eIF4H inh	MT1-MMP act inh	MT1-MMP act inh RFP	Yeast UUG start	HIV Env fusion	Rce1 inhib	PABP FP inh	CSC inhib
`CSc1ccccc1N=CC1=C(O)CC(C)(C)CC1=O` reads -4	4	-1	1	/	i	2	/
`COc1ccc(N2C(=O)CC(N3CCN(c4ccc(Cl)cc4)CC3)C2=O)cc1` (stereo unspecified) reads -1	4	-1	5	-7	i	-9	-15

(cont.)
molecule,eIF4H inh,MT1-MMP act inh,MT1-MMP act inh RFP,Yeast UUG start,HIV Env fusion,Rce1 inhib,PABP FP inh,CSC inhib
CCOCCCNC(=O)C(NC(=O)CNC(C)=O)c1ccc(C)cc1 (stereo unspecified),0,0,6,-21,-10,i,-6,/
COc1ccccc1/C=C/C=N/NC(=O)CCC1C(=O)NN=C1C (stereo unspecified),-3,0,5,/,10,i,-15,-4
Cc1cc(=O)c(C(=O)O)nn1-c1cccc(C(F)(F)F)c1,-6,0,0,-8,12,i,-1,-5
CC(C)[C@H](NS(=O)(=O)c1ccc2c(c1)OCCO2)C(=O)OCC(=O)Nc1cccc(Cl)c1Cl,13,2,2,/,-17,i,-2,14
O=C(C1=C(O)C(=O)N(Cc2ccco2)C1c1ccccc1F)c1cccs1 (stereo unspecified),-5,1,5,/,-41,i,3,-5
c1ccc2oc(-c3csc(N4CCOCC4)n3)cc2c1,-4,4,-1,-35,-120,i,-10,-15
CC(=O)NC1C(=O)N=C(SC(C)C(=O)Nc2cccc(Cl)c2)NC1=O (stereo unspecified),-3,-2,4,/,22,i,-2,-3
CCCCCCN(CCCCCC)C(=O)Cc1c(-c2ccc(F)cc2)[nH]c2ccccc12,/,-21,-28,-6,5,/,/,67
